VACV mCherry inh = qHTS for Stage-Specific Inhibitors of Vaccinia Orthopoxvirus: mCherry Reporter Primary qHTS. Potency, µM (titrated, usually from 36.5 µM), without a hit: at the top dose activity change, negative = inhibition, actives largely listed as inhibitors. Vaccinia virus mCherry reporter infection, fluorescence; about a quarter of the inactives have no number. hit rate 0.63% among 310,000; active = well fitted inhibition curve with a large enough effect; inconclusive = small, poorly fitted or top-dose-only effect; inactive = no such curve, though single readings can be large or run the other way; tested in A549 cells; further: nearly all actives have a fitted effect of over 35% in size; inactives centre near -10
Vaccinia Venus = qHTS for Stage-Specific Inhibitors of Vaccinia Orthopoxvirus: Venus Reporter Primary qHTS; hit rate 0.46% among 330,000; Vaccinia virus Venus reporter expression, fluorescence; Potency, µM (top dose mostly 36.5 µM), for inactives: top-dose activity change, negative = inhibition, most hits filed as inhibitors; AID 720580, 2013; active means well fitted inhibition curve with a large enough effect; inconclusive means small, poorly fitted or top-dose-only effect; inactive means no such curve, though single readings can be large or run the other way; tested in A549 cells; further: nearly all actives have a fitted effect of over 30% in size; inactives centre near -10
Numbers without * were called inactive; i = inactive; ? = inconclusive; . = not tested or not shown; & = joins results of further samples. On the % scale 0 is the no-effect control and ±100 the full control effect; potency means the concentration at half of the fitted maximal effect. An unsorted share of the library; 0.88% or so of the library scored in one or more.

Order of values: VACV mCherry inh	Vaccinia Venus
CC(=O)Nc1ccc(NC(=O)C(C)OC(=O)CCCc2c[nH]c3ccccc23)cc1 (centres undefined)
    -17%	-14%
O=[N+]([O-])c1ccc(OC/C=C2\Oc3ccc([N+](=O)[O-])cc3C2N2CCOCC2)cc1 (centres undefined)
    .	-10%
COc1ccccc1-c1ccnc2[nH]n(-c3ccccc3)c(=O)c12
    -5%	5%
CSc1ccccc1C(=O)Nc1cc2c(cc1C(=O)O)OCCCO2
    -21%	-13%
CCOCCCNC(=O)C1(O)c2cc(Br)ccc2NC(=O)N1c1cccc(OC)c1 (centres undefined)
    -2%	1%
COc1ccc(C(C(=O)NC2CCCC2)N2CCc3ccccc32)cc1 (centres undefined)
    4%	0%
C/C(=N\NC(=O)c1ccc(=O)[nH]n1)c1cccnc1
    i	-11%
Cc1ccc2c(Cl)c(C(=O)NCCCN3CCOCC3)sc2c1
    -9%	-10%
COc1ccc(S(=O)(=O)N2CCC3(CC2)OCCN3S(=O)(=O)c2cccs2)cc1OC
    i	-11%
O=C(CSc1cn(Cc2cccc(F)c2)c2ccccc12)NCc1ccc(F)cc1
    i	-16%
COc1ccc(C(=O)Cn2c(=O)oc3ccc(C)cc32)cc1
    i	-11%
CS(=O)(=O)c1ccc(N2CCN(c3ccccn3)CC2)c([N+](=O)[O-])c1
    -3%	14%
COc1cc(/C=N/NC(=O)c2ccc(CSc3nc4ccccc4[nH]3)cc2)ccc1O
    1%	7%
O=C1O[C@@H](c2ccccc2)C[C@@H](O)[C@H](O)CCCCc2ccccc21
    i	9%
COC(=O)c1sccc1NC(=O)Nc1ccccc1Cl
    i	-18%
CC(C)(C)n1cc(C(=O)c2ccccc2OCCCF)cn1
    i	-10%
Cc1cc(C)nc(SCc2nc3nc(C)cc(C)n3c2Br)n1
    -8%	-5%
OCCNCCCCOc1ccc(F)cc1
    -17%	-8%
O=C(Nc1ccc2c(c1)OCO2)C1CCN(S(=O)(=O)c2cccs2)CC1
    i	-21%
CS(=O)(=O)N1CCc2cc(C(=O)O)ccc21
    .	-15%

Order of values: VACV mCherry inh	Vaccinia Venus
COc1ccc(N=C(C)C2=C(O)c3ccccc3C2=O)cc1
    -10%	-22%
O=C(C[n+]1ccn(CCCNP2(=O)C=C(c3ccccc3)OC(c3ccccc3)=C2)c1)c1cccs1
    i	2%
C[C@H]1CN([C@@H](C)CO)S(=O)(=O)c2ccc(C#Cc3cccnc3)cc2O[C@@H]1CN(C)C(=O)Nc1ccc2c(c1)OCO2
    -11%	-21%
Cc1ccc(S(=O)(=O)NCC(=O)N(CC(=O)NCc2ccco2)C2CCCC2)cc1
    -3%	3%
N#CC1=C2SCN(Cc3ccco3)CN2C(=O)CC1c1c(F)cccc1Cl (centres undefined)
    i	-1%
O=C(CCSCCc1ccccn1)Nc1c(F)cc(F)cc1Br
    -2%	-17%
C#CCNC(=O)C1=C[C@H](c2ccc3c(c2)OCO3)[C@@H](CCCO)[C@H](OCC)O1
    -3%	-4%
CCCn1c(=N)c(C(=O)NCc2ccco2)cc2c(=O)n3cc(C)ccc3nc21
    -2%	-4%
CN(C(=O)c1cccc(NC(=O)Cc2ccc(NC(=O)C3CCCN(C(=O)C4CCCCC4)C3)cc2)c1)C1CC1 (centres undefined)
    -9%	-2%
CC1=CS/C(=C(/C#N)C(=O)N2CCCCC2)N1c1ccccc1
    .	-12%
O=C(NCCCCc1ccccc1)Nc1cccc(F)c1
    -17%	-24%
Cc1ccc(NC(=O)Nc2ccc3c(c2)CCC3)cc1
    i	-4%
O=C(Cn1cc(C(=O)COc2ccccc2)c2ccccc21)NCc1ccco1
    .	-15%
N#Cc1ccc(Cn2c(=O)oc3ccccc32)cc1
    -6%	-4%
COc1ccc(NC(=S)NN2C(C)CCCC2C)cc1 (centres undefined)
    -10%	-9%
O=C(CC1N=C2c3ccccc3N=C(SCc3cccc(F)c3)N2C1=O)NCc1cccs1 (centres undefined)
    -28%	-24%
CCOC(=O)c1ccc(NC(=O)Cn2nc(C)c3nn(-c4ccc(Cl)cc4)c(C)c3c2=O)cc1
    -9%	-8%
O=C(NCCS(=O)(=O)N1CCN(c2ccc(F)cc2)CC1)c1cc(=O)c2ccccc2o1
    -24%	-18%
CCCN(C(=O)CSc1nnnn1-c1ccccc1OC)C1CCS(=O)(=O)C1 (centres undefined)
    -26%	-13%
CN(C)CCC(c1ccccc1)c1ccccn1 (centres undefined)
    -14%&-7%	-8%&-14%&-2%&-14%

Order of values: VACV mCherry inh	Vaccinia Venus
CC(C)(C)c1ccc(OCC(=O)Nc2c(C(=O)c3ccc(F)cc3)oc3ccccc23)cc1
    -2%	1%
O=[N+]([O-])c1cccnc1Oc1cc(Cl)c(Cl)cc1Cl
    i	13%
Cc1ccc(S(=O)(=O)N(C)c2ccc(C(=O)Nc3ccc(C)cn3)cc2)cc1
    -10%	-8%
CCn1c(=O)cc(OCC(=O)N2CCN(c3ccc(OC)cc3)CC2)c2ccccc21
    -14%	-15%
C1=C(c2sc3ccccc3c2-c2ccc(OCCN3CCOCC3)cc2)CCCC1
    -5%	-5%
COc1cc2cc(CCCO)oc(=O)c2cc1OC
    i	-10%
Cc1ccc(C(O)c2ncc(-c3ccc(Cl)cc3)[nH]2)cc1F (centres undefined)
    -14%	-29%
COc1ccc(OC)c(NC(=O)CSc2nnc3ccc(-c4ccncc4)nn23)c1
    -2%	-1%
COC(=O)C1=C(c2ccc(S(C)(=O)=O)cc2)C[C@@H]2CC[C@H]1N2C(=O)NCc1ccco1
    i	-1%
CN(C(=O)c1cccc(NC(=O)Cc2ccc(NC(=O)C3CCCN(C(=O)C4CC4)C3)cc2)c1)C1CCCCC1 (centres undefined)
    -7%	-10%
O=C(OCC(O)COC(=O)c1cccnc1)c1cccnc1
    -15%	-9%
C=CCn1c(N2CCCCCC2)nc2c1c(=O)n(C)c(=O)n2C
    i	-17%
Cc1ccc(-c2noc(-c3nnn(CC(=O)Nc4ccc(C)cc4Cl)c3N)n2)cc1
    0%	-13%
CN1CCN(C(=O)c2cc3c(C(F)(F)F)nn(C)c3s2)CC1
    .	-12%
COC(=O)c1ccc(CNC(=O)COC(=O)COc2ccc(OC)cc2)cc1
    -8%	0%
COc1cccc(NC(=O)c2ccc3c(=O)n4nc(Nc5ccccc5OC)sc4nc3c2)c1
    ?	?
Cc1nc(SCC(N)=O)c([N+](=O)[O-])[nH]1
    i	5%
COc1ccc2c(CN3CCN(c4ccccc4OC)CC3)cc(=O)oc2c1
    26%	-6%
O=C(CSC1CS(=O)(=O)c2cc([N+](=O)[O-])ccc21)NNC(=O)c1ccccc1 (centres undefined)
    -36%	-12%
O=[N+]([O-])c1ccccc1S(=O)(=O)NCc1ccco1
    -10%	-19%

Exported bar-delimited: entries from further up
structure | VACV mCherry inh | Vaccinia Venus
O=C(NCCCCc1ccccc1)Nc1cccc(F)c1 | -17% | -24%
Cc1ccc(NC(=O)Nc2ccc3c(c2)CCC3)cc1 | i | -4%

Continuation.
Order of values: VACV mCherry inh	Vaccinia Venus
O=C(NCCc1ccc2c(c1)OCCO2)c1cc(S(=O)(=O)N2CCCC2)ccc1Cl
    -9%	-1%
O=C(Cn1c(=O)oc2ccccc21)NCc1ccccc1Cl
    -4%	-9%
O=c1c2ccccc2n2c(-c3ccc(F)c(F)c3)nnc2n1CCc1ccccc1
    -14%	-4%
CN(C)c1ccc(C2OC(=O)C3(CCCC3)C(=O)C2(C)C)cc1 (centres undefined)
    -8%	1%
CCCCNc1nccnc1-c1cccc(C=O)c1
    -2%	3%
COc1ccc(S(=O)(=O)NN(C)C)cc1N(C)S(=O)(=O)c1ccc(Cl)cc1
    i	-4%
CCOC(=O)c1scc(-c2ccccc2)c1S(=O)(=O)N1CCN(c2ccccc2OC)CC1
    -19%	-14%
CCOC(=O)C1(Cc2cccc(OC)c2)CCN(Cc2ccc(OC)c(OC)c2)CC1
    i	-18%
O=C(Cc1ccc(F)cc1)Nc1nnc(SCC(=O)N2CCCCC2)s1
    -13%	4%
Cc1ccc(C(=O)Nc2ccc3nccnc3c2)cc1
    -4%	-8%
OC(CNCC1CCCO1)COc1ccc(OCC(O)CNCC2CCCO2)cc1 (centres undefined)
    .	-8%
COc1cc(Cl)c(C)cc1NC(=O)CN1CCN(C(=O)c2cccs2)CC1
    -3%	-12%
Cc1nn(CC(=O)Nc2ccccc2C(F)(F)F)c(=O)c2cccn12
    -10%	-10%
CSc1ccccc1NC(=O)CSc1nnc(COc2ccccc2)o1
    -7%	-18%
NC(=O)c1sc2nc3c(c(-c4cccs4)c2c1N)CCCCC3
    -27%	-15%
Cc1ccc(-c2nnn(CC(=O)N(c3ccccc3)C(C(=O)NC3CCCC3)c3ccncc3)n2)o1 (centres undefined)
    -13%	-3%
Cc1ccc(C2c3c(oc4cc(C)c(C)cc4c3=O)C(=O)N2CCCN2CCOCC2)cc1 (centres undefined)
    -12%	-15%
O=C(NCC1CCCO1)c1cccc(S(=O)(=O)Nc2cccc(C(F)(F)F)c2)c1 (centres undefined)
    i	-14%
Cc1ccc(N2C(=O)[C@@H]3[C@H](C2=O)[C@H]2C=CC=NN2[C@@H]3C(=O)Nc2ccccc2)cc1
    i	-12%
O=C(NCc1cccnc1)C1CCN(S(=O)(=O)c2cccnc2)CC1
    .	-15%

Order of values: VACV mCherry inh	Vaccinia Venus
CC(C)c1c(C(=O)N(C)CC2CCCN(C)C2)cnn1-c1nccc(-c2cccs2)n1 (centres undefined)
    -20%	-16%
CCN1CCCC1CNS(=O)(=O)c1c(C)cc(C)cc1C (centres undefined)
    -15%	-13%
O=C(Nc1ccc(C(=O)N2CCOCC2)cc1)Nc1cccc(C(F)(F)F)c1
    -15%	-16%
Cc1ccc(-n2c3c(cc(C(=O)NC4CCSC4=O)c2=O)C(=O)CC(C)(C)C3)cc1 (centres undefined)
    -11%	-7%
O=C(CSc1nnc(Cc2ccccc2)o1)N1CCCc2ccccc21
    i	-9%
CCOC(=O)c1cc(/C(C)=N/OC(=O)c2ccc(Cl)cc2)on1
    -22%	-9%
CCOc1cccc(N(C(=O)Cc2cccs2)C(C(=O)NC2CCCCC2)c2cccn2C)c1 (centres undefined)
    -21%	-16%
Cc1ccc(CNc2ncnc3sc(C(=O)N4CCC[C@H]4C(N)=O)c(C)c23)o1
    -8%	-2%
O=C(c1ccco1)c1cn(Cc2ccc(Cl)cc2)c2ccccc12
    .	?
Cc1ccc(S(=O)(=O)c2nc(-c3ccccc3)oc2N2CCCCCC2)cc1
    -14%	-1%
CCC(C)n1c(=O)c2sccc2n2c(CCCC(=O)NCc3ccccc3Cl)nnc12 (centres undefined)
    -5%	-10%
O=C(CNC(=O)c1ccc(Cl)cc1Cl)OCC(=O)N1CCCC1=O
    i	-18%
O=C(Cc1ccc(Cl)cc1)NCCS(=O)c1ccc(Cl)cc1 (centres undefined)
    .	-13%
Cc1cccc(NC(=O)CSc2nc(=O)n(Cc3ccncc3)c3c2CCC3)c1C
    -21%	-4%
CC(=O)OCC1=C(C(=O)O)N2C(=O)C(NC(=O)c3ccc(COc4ccc(Cl)cc4)o3)C2SC1 (centres undefined)
    -12%	-8%
CCOC(=O)N1CCN(C(=O)CSc2nc3c([nH]c4ccccc43)c(=O)n2CC)CC1
    i	-10%
Cc1ccc(-c2nnc(Nc3ccccc3)c3ccccc23)cc1S(=O)(=O)NCc1nc2ccccc2[nH]1
    -19%	-30%
COc1ccc(C2CC(c3cccs3)=NN2C(=O)CSC2=NN3CCCC(=O)N=C3S2)cc1 (centres undefined)
    -6%	2%
CCCCn1c(N)c(N(CCOC)C(=O)C(C)Oc2ccc(Cl)cc2)c(=O)[nH]c1=O (centres undefined)
    i	1%
CC(C)(C)CC(=O)Nc1cccc(-c2cn3cccnc3n2)c1
    -15%	-9%

Next part; the last 2 above are carried over.
Order of values: VACV mCherry inh	Vaccinia Venus
CCCCn1c(N)c(N(CCOC)C(=O)C(C)Oc2ccc(Cl)cc2)c(=O)[nH]c1=O (centres undefined)
    i	1%
CC(C)(C)CC(=O)Nc1cccc(-c2cn3cccnc3n2)c1
    -15%	-9%
N#CCOC(=O)c1sccc1-n1cccc1
    .	6%
CCOC(=O)C1Oc2ccccc2C(C(=O)OC)=C1C(=O)OC (centres undefined)
    -21%	-5%
CCOc1cccc2cc(C(=O)Oc3ccc(OC)cc3)c(=O)oc12
    -9%	-6%
Cc1cccc(NC(=O)COn2nnc3ccc(S(C)(=O)=O)cc32)c1
    -19%	-16%
C=C[C@H]1CN2CC[C@H]1C[C@H]2[C@H](OC(=O)OCC)c1ccnc2ccc(OC)cc12
    -17%	-14%
CCOc1ccccc1N1CCN(C(=O)Nc2cccc(Cl)c2)CC1
    i	-16%
CCOC(=O)c1ccccc1NC(=O)C1CC(=O)N(c2ccccc2)C1 (centres undefined)
    i	-7%
CC(=O)c1cccc(-c2ccnc3c2CC(C(=O)NCC2CCOCC2)O3)c1 (centres undefined)
    ?	-27%

Quoted from the listing.
CCCCn1c(N)c(N(CCOC)C(=O)C(C)Oc2ccc(Cl)cc2)c(=O)[nH]c1=O (centres undefined) in Vaccinia Venus = 1%
Cc1ccc2c(Cl)c(C(=O)NCCCN3CCOCC3)sc2c1 in Vaccinia Venus = -10%

Assay outcomes from PubChem BioAssay.
